RE007 growth inh: less growth of the S. pombe RE007 Vpr strain. Potency, µM (series often up to 92.2 µM), for inactives: at the highest dose activity change, negative = less growth. 360,000 tested, 0.21% active. AID 651644. S. pombe RE007 Vpr strain, BacTiter-Glo ATP luminescence, 24 h; control for the full effect not named in the record; active = well fitted falling curve with a large enough effect; inconclusive = small, poorly fitted or top-dose-only effect; inactive = no such curve, though single readings can be large or run the other way;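 further: on the % scale 0 is the no-effect control and ±100 the full control effect; nearly all actives have a fitted effect of over 50% in size; the assay follows cell death caused by Vpr and the record does not say whether a fall means rescue or toxicity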
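Fission yeast RE007 carrying one integrated HIV-1 vpr copy, seeded at OD 0.01 in PMG+AL medium with 23 nL pinned compound. Grown 24 h at 30 degrees; viability read by BacTiter-Glo luminescence after 5 min.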
Lassa entry inh: inhibitors of Lassa virus binding or cell entry; 300,000 tested, 1.2% active; Potency, µM (titrated, usually from 37.9 µM), inactives show top-dose activity change, negative = inhibition, usual class: inhibitors; AID 540256; Lassa virus pseudotype entry inhibition, cell reporter; control for the full effect not named in the record; active means well fitted inhibition curve with a large enough effect; inconclusive means small, poorly fitted or top-dose-only effect, or effect the other way; inactive means flat fitted curve, though single readings scatter; tested in HEK293 cells; further: on the % scale 0 is the no-effect control and ±100 the full control effect; nearly all actives have a fitted effect of over 50% in size; luciferase read-out
Cruzain noTriton: cruzain (T. cruzi) inhibition without detergent; P25779; purified cruzain, Z-FR-AMC fluorescence, no detergent; Potency, µM, inactives show max response, negative = inhibition, usual class: inhibitors; 200,000 tested, 2.3% active; active means well fitted curve in the direction sought with a large enough effect; inconclusive means small, poorly fitted or top-dose-only effect, or another doubt; inactive means no such curve, though single readings can be large; an effect the other way counts as inactive or inconclusive;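 further: plate controls were enzyme without inhibitor for no effect and buffer without enzyme for full effect; nearly all actives have a fitted effect of over 40% in size; top concentration of the series not given in the record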
Target sequence (P25779 123-467 limits assumed): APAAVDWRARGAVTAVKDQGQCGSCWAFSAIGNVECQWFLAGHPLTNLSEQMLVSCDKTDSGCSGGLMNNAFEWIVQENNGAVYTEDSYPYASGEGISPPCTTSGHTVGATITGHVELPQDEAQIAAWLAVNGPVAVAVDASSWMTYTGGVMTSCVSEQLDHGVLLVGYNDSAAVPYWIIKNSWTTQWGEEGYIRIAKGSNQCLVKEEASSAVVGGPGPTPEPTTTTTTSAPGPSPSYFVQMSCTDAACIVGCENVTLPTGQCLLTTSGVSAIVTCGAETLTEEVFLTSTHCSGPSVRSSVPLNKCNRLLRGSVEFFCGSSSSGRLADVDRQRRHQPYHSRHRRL
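Detergent-free condition (0.00005% Triton X-100) in acetate buffer pH 5.5 with DTT. 1.5 nM enzyme and compound were pre-mixed 15 min, then 2 uM Z-FR-AMC substrate added; reaction progress from fluorescence change between first and third reads (60 s).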
2A StopGo: FMDV 2A StopGo reporter, luciferase signal | human cells with a luciferase reporter of 2A StopGo recoding; control for the full effect not named in the record | Potency, µM (top dose mostly 57.9 µM), for the others: at the top dose signal change, negative = less light | 410,000 tested, 1.2% active; active = well fitted falling curve with a large enough effect; inconclusive = small, poorly fitted or top-dose-only effect; inactive = no such curve, though single readings can be large or run the other way; tested in HEK293T cells; further: on the % scale 0 is the no-effect control and ±100 the full control effect; nearly all actives have a fitted effect of over 45% in size; luciferase light after 4 h
Cruzain Triton: inhibitors of Trypanosoma cruzi cruzain with detergent | purified cruzain, Z-FR-AMC fluorescence, 0.01% Triton | 200,000 tested, 0.43% active | AID 1478 | P25779 | Potency, µM, inactives show max response, negative = inhibition, actives largely listed as inhibitors; active means well fitted curve in the direction sought with a large enough effect; inconclusive means small, poorly fitted or top-dose-only effect, or another doubt; inactive means no such curve, though single readings can be large; an effect the other way counts as inactive or inconclusive;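 further: plate controls were neutral wells for no effect and buffer without enzyme for full effect; nearly all actives have a fitted effect of over 40% in size; top concentration of the series not given in the record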
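Detergent-containing run (0.01% Triton X-100) in acetate buffer pH 5.5 with 5 mM DTT: enzyme at 1.5 nM final, 15 min compound preincubation at room temperature, then 2 uM Z-FR-AMC substrate. Activity taken as 60 s fluorescence increase at 360/450 nm.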
Marburg entry inh: Marburg virus entry inhibition | Marburg virus pseudotyped entry inhibition, cell reporter; control for the full effect not named in the record; about a third of the inactives were read at about 46 µM | Potency, µM (titrated, usually from 37.8 µM), for inactives: at the highest dose activity change, negative = inhibition, actives largely listed as inhibitors | 300,000 tested, 1.8% active; active = well fitted inhibition curve with a large enough effect; inconclusive = small, poorly fitted or top-dose-only effect, or effect the other way; inactive = flat fitted curve, though single readings scatter; tested in HEK293 cells; about a fifth of its hits are not listed in these tables; further: on the % scale 0 is the no-effect control and ±100 the full control effect; luciferase read-out
SARS PLP yeast: inhibitors of SARS-CoV papain-like protease in yeast | S. cerevisiae expressing SARS-CoV PLpro, growth rescue; control for the full effect not named in the record | Potency, µM (titrated, usually from 32.9 µM), for inactives: top-dose activity, positive = growth rescue | 330,000 tested, 0.19% active | AID 485353; further: 0% is about no effect; nearly all actives have a fitted effect of over 55% in size; growth read by luminescence after 48 h
NS1 function inh: inhibitors of influenza NS1 protein function | S. cerevisiae slowed by influenza A NS1, growth recovery by OD600 | Potency, µM (top dose mostly 46.1 µM), inactives show at the highest dose activity, positive = more growth | 270,000 tested, 0.4% active; further: actives are rising curves; nearly all actives have a fitted effect of over 50% in size
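A cell-based growth assay was used: compounds that relieve NS1-induced slow growth of budding yeast raise OD600. Assay medium was yeast nitrogen base with ammonium sulphate and -URA supplement, pH 6.0, with 2% galactose.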
Starred values were filed as active, the others as inactive; u = inconclusive; x = not tested or not shown; & = joins results of further samples; [ ] = another dose, or the depositor's remark. Unless noted, the call rests on the fitted dose curve; in most records, active means well fitted rising curve with a large enough effect; inconclusive means small, poorly fitted or top-dose-only effect; inactive means no such curve, though single readings can be large or run the other way. Potency means the concentration at half of the fitted maximal effect.

mol,RE007 growth inh,Lassa entry inh,Cruzain noTriton,2A StopGo,Cruzain Triton,Marburg entry inh,SARS PLP yeast,NS1 function inh
Cc1cc(CNC(=O)COc2cc(F)ccc2[N+](=O)[O-])c2ccccc2n1,-28%,u,x,u,x,u,-2%,x
Cc1ccc(N(C(=O)Cn2nnc(-c3ccc(F)cc3)n2)C(CC(C)C)C(=O)NCC2CCCO2)cc1 (configuration not stated),-5%,-9%,u,-9%,-4.6%,u,0%,-15%
CCC(C(N)=NCCc1ccc(OC)c(OC)c1)c1ccccc1 (configuration not stated),-15%,x,x,-22%,x,x,0%,4%
COc1ccc(CCNC(=S)NCCc2c[nH]c3ccccc23)cc1,6%,u,x,-3%,x,-3%,-5%,x
C=CCOc1ccc(CN(C)C(=O)CN2C(=O)c3ccccc3C2=O)cc1,6%,1%[46.1 µM],x,1%,x,6%[46.1 µM],-2%,-20%
CCOc1ccc(-c2cc(OC(=O)c3ccc(F)cc3)c3c(C)oc(C)c3c(=O)c2)cc1,x,u,-20%,-10%,-8.1%,-8%[46.1 µM],x,x
O=C(Cn1nnc(-c2cccc(C(F)(F)F)c2)n1)NC1CCCC1,-3%,-19%,-13%,-9%,-1.0%,-3%,-3%,9%
NC(=O)c1ccsc1NC(=O)c1ccc(S(=O)(=O)N2CCCCC2)cc1,18%,x,-21%,-14%,-6.8%,x,-5%,10%
O=C1NC2=C(C(=O)CCC2)C(c2ccc(OC(F)F)cc2)N1 (configuration not stated),16%,-6%[46.1 µM],x,21%,x,-4%[46.1 µM],5%,-9%
C/C(CC(=O)Nc1ccc(Cl)cc1Cl)=N\NC(=O)C(=O)NCCO,5%,-10%,18%,-28%,-0.9%,-2%,-12%,0%
CCOP(=O)(OCC)C(O)c1ccccc1 (configuration not stated),-5%,x,x,6%,x,x,-1%,2%
CC(C)Oc1ccc(C(=O)Nc2cc(S(=O)(=O)N3CCOCC3)ccc2N2CCOCC2)cc1,-18%,13µM*,x,13%,x,u,-2%,x
O=C(CC(SCCO)c1ccc(F)cc1)c1ccco1 (configuration not stated),u,0%,-9%,-17%,2.4%,-8%,-12%,-146%
CCC1=C(OC(=O)N(CC)CC)N2C(=O)OC(=NCC(=O)OC)[C@]2(Cc2ccccc2)[C@H]2C1=CC[C@H]1C(=O)NC(=O)[C@H]12,4%,x,u,0%,-7.4%,x,0%,-5%
COc1cccc(CN2CCc3ccc(NC(=O)CCc4ccc(C)cc4)cc3C2)c1O,-18%,x,x,u,x,x,-1%,-5%

(listing goes on)
mol,RE007 growth inh,Lassa entry inh,Cruzain noTriton,2A StopGo,Cruzain Triton,Marburg entry inh,SARS PLP yeast,NS1 function inh
CCc1c(C)nc(N)nc1N1N=C1SCCOc1ccccc1,0%,2%[46.1 µM],x,-20%,x,-9%[46.1 µM],-1%,0%
CC(=O)c1cc2c(C)c(C(=O)c3ccccc3)oc2cc1O,-6%,u,-15%,-17%,-7.8%,u,-17%,-3%
CCOC(=O)N1CCN(C(=O)CSc2ccc3nnc(CCNC(=O)c4ccccc4)n3n2)CC1,-11%,-5%[46.1 µM],x,-3%,x,21%[46.1 µM],-8%,x
Cc1nc2ccccc2n1CC(O)Cn1c2ccccc2c2ccccc21 (configuration not stated),16%,3%,7%,15%,-17%,11%,5%,-35%
CCN(CC(=O)Nc1cccc(OC)c1)C(=O)c1cccc(S(=O)(=O)N2CCc3ccccc32)c1,3%,-20%,x,13%,x,u,-1%,x
Cc1cccc(NC(=S)N2CCCCC2)c1,-19%,-3%,5%,38%[activator],2.3%,u,12%,-7%
CCOc1cccc2cc(-c3nnc(NCc4ccco4)s3)c(=O)oc12,-10%,-8%,2%,38%[activator],1.4%,21%[46.1 µM],2%,-1%
COc1ccc(C(=O)N2CCC(C(=O)Nc3ccc4c(c3)OCCO4)CC2)cc1,-2%,13%,8%,u,2.6%,11%,1%,-6%
CCCCC(=O)NC(=S)NNC(=O)c1ccc(Cl)cc1Cl,-1%,18%,x,-8%,x,1%,-1%,-7%
CC1=C(c2ccc(C)cc2)S(=O)(=O)N=C1N1CCN(c2ccccc2)CC1,x,2%[46.1 µM],u,-4%,-6.5%,-30%[46.1 µM],x,x
O=C(Nc1cccc(NC(=O)C2CC2)n1)C1CC1,5%,u,-7%,-5%,-8.3%,2%,14%,-4%
CCCC[n+]1ccn(-c2nc3ccccc3nc2[N-]S(=O)(=O)c2ccccc2)c1,5%,u,12%,x,0.8%,16%,-8%,-7%
O=C(Nc1nccs1)C1CCN(S(=O)(=O)c2ccc(F)cc2)CC1,-2%,3%[46.1 µM],x,4%,x,u,-3%,-5%
O=C(O)c1cccc(Cn2c(Cl)c(/C=N/NC(=O)c3ccco3)sc2=O)c1,-14%,x,x,6%,x,x,u,4%
CC(C)(C)NC(=O)NC(=O)COC(=O)c1cccc(NS(=O)(=O)c2ccc(F)c(F)c2)c1,-1%,10µM*,5%,-19%,-11%,u,-6%,13%

The results go on:
mol,RE007 growth inh,Lassa entry inh,Cruzain noTriton,2A StopGo,Cruzain Triton,Marburg entry inh,SARS PLP yeast,NS1 function inh
CCCCn1c(NCc2ccc(OC)cc2O)nc2ccccc21,-3%,-1%[46.1 µM],-8%,-19%&0%,-2.1%,x,x,x
COc1ccccc1-n1c(=O)oc2ccc(Cl)cc2c1=O,u,u,1%,0%,-1.9%,u,-27%,-141%
CCOc1cc(C(=O)Nc2nnc3n2CCS3)cc(OCC)c1OCC,x,1%[46.1 µM],-11%,5%,-0.4%,x,x,x
O=C(Cn1cccc1)N1CCN(C(c2ccccc2)c2ccccc2)CC1,-21%,-2%,-6%,5%,0.6%,1%,-9%,2%
CCOc1ccc(S(=O)(=O)NC(C)C)cc1C(N)=O,0%,-17%,x,12%,x,11%[46.1 µM],0%,4%
Cc1ccc(OCC(=O)Nc2c(Cl)ccc3nsnc23)cc1C,x,-2%[46.1 µM],-10%,-18%,-1.3%,-10%[46.1 µM],x,x
COC1=CC(=O)O[C@@H](/C=C/c2ccccc2)C1,2%[18.4 µM],x,9%,-17%,-4.0%,18%,6%,x
Cc1ccc(Nc2nc(C)nc3c2oc2ccccc23)cc1,-1%,-16%,x,-14%,x,u,-1%,-33%
CCCCOc1ccc(S(=O)(=O)n2nc(C)c(S(=O)(=O)N3CCC(C)CC3)c2C)cc1,x,1%[46.1 µM],-8%,16%,-1.7%,x,x,x
COc1cc(O)c(C(CCN2CCN(c3ccccc3)CC2)c2ccc3c(c2)OCO3)c(OC)c1 (configuration not stated),-11%,x,x,-6%,x,x,0%,-1%
Cc1cc(C)cc(OCC(=O)N2N=C(c3cccnc3)CC2(O)C(F)(F)F)c1 (configuration not stated),36%,-13%,24%,u,-4.0%,u,-28%,-9%
O=C(Nc1nnc(SCCN2CCOCC2)s1)C1CC(=O)N(c2ccc(F)cc2)C1 (configuration not stated),-12%,-5%,x,-9%,x,17%,-6%,0%
O=C(Nc1ccc(Cl)cn1)C1COc2ccccc2O1 (configuration not stated),-29%,16%,x,17%,x,9%[46.1 µM],-1%,0%
COc1ccc(C(=O)Nc2cccc(NC(=O)c3cccs3)c2)cc1,0%,x,x,77%[activator],x,x,3%,-6%
O=C(O)c1cccc(N2C(=O)CSC2c2c(F)cccc2Cl)c1 (configuration not stated),19%,16%,-2%,-20%,-2.1%,u,-9%,-1%

Later entries:
mol,RE007 growth inh,Lassa entry inh,Cruzain noTriton,2A StopGo,Cruzain Triton,Marburg entry inh,SARS PLP yeast,NS1 function inh
Cc1cccc(Nc2nc(N3CCCCC3)nc(N3CCCCC3)n2)c1,-11%,u,-20%,x,-6.0%,u,-27%,-11%
C=CCOc1ccccc1CNCCNC(=O)c1nonc1N,-20%,9%,x,-5%,x,-1%,-1%,u
CCCC(=O)OCC(=O)Nc1cc(C(C)(C)C)nn1-c1ccccc1,-5%,-8%,7%,-5%,1.9%,u,5%,-7%
COC(=O)c1ccc(-n2nnnc2SC)cc1,2%,u,5%,27%,4.5%,-6%,5%,3%
Cn1c(CN2CCCC2)nc2cc(NC(=O)COc3ccc(Cl)cc3)ccc21,-12%,20%,-2%,x,-1.5%,u,0%,-40%
CCN1C(=O)C(=O)N(CC(=O)Nc2ccccc2Oc2ccccc2)C1=O,1%,13%,x,-10%,x,-2%[46.1 µM],3%,3%
CNC(=S)NNC(=O)c1cccn(Cc2cccc(C(F)(F)F)c2)c1=O,-3%,u,x,-16%,x,5%,1%,6%
CCOC(=O)C1=C(C)Nc2ccccc2N=C1NC(=O)c1oc2ccccc2c1COC,-15%,-10%,x,u,x,u,-5%,x
CC(C)OCCCN1C(=O)c2ccccc2C1C(=O)NC1CCCCC1 (configuration not stated),15%,-5%,-5%,-5%,7.9%,1%,-3%,2%
CCOC(=O)c1c(-c2ccsc2)csc1N,-30%,-11%,-12%,-18%,-3.4%,7%,-1%,-12%
COc1ccc(NC(=O)C(C)SCc2ccccc2)cc1 (configuration not stated),1%,u,x,18%,x,1%,-2%,-6%
COc1cc2cc(CNc3ccc(C)cc3)c(=O)n(CC(=O)Nc3ccc(C(C)C)cc3)c2cc1OC,x,1%[46.1 µM],2%,9%,-1.3%,x,x,x
Cc1ccc2oc(=O)n(CC(=O)O)c2c1,2%,x,-2%,-18%,4.5%,-1%,23%,-4%
O=C(CCC(=O)N(CC(=O)NC1CCCC1)c1ccccc1F)Nc1nccs1,9%,-7%,x,-4%,x,1%[46.1 µM],1%,-2%
Cc1nnc(N/N=C/c2ccco2)n1N,-9%,x,x,18%,x,u,-1%,x
O=C(CCCCCn1c(=O)[nH]c2ccsc2c1=O)N1CCN(C2CCCCC2)CC1,-2%,x,-16%,-20%,-2.5%,1%,2%,u
COc1ccccc1/C=N/NC(=O)c1ccc(Br)cc1,-20%,-14%[46.1 µM],x,-1%,x,-21%[46.1 µM],-2%,x
COc1ccc(C2(CNC(=O)Cc3ccccc3)CCCC2)cc1OC,-2%,0%,17%,x,4.1%,0%,7%,-3%

Screening results: PubChem BioAssay, National Center for Advancing Translational Sciences (NCATS)
